Lassa entry inh: qHTS for Inhibitors of binding or entry into cells for Lassa Virus; Lassa virus pseudotype entry inhibition, cell reporter; control for the full effect not named in the record; Potency, µM (top dose mostly 37.9 µM), for inactives: top-dose activity change, negative = inhibition, usual class: inhibitors; 1.2% of 300,000 active; AID 540256, 2011; active means well fitted inhibition curve with a large enough effect; inconclusive means small, poorly fitted or top-dose-only effect, or effect the other way; inactive means flat fitted curve, though single readings scatter; tested in HEK293 cells; note: % is set by controls: 0 for no effect and ±100 for the full control effect; nearly all actives have a fitted effect of over 50% in size; luciferase read-out
SARS PLP yeast: qHTS of Yeast-based Assay for SARS-CoV PLP; Potency, µM (top dose mostly 32.9 µM), without a hit: top-dose activity, positive = growth rescue; S. cerevisiae expressing SARS-CoV PLpro, growth rescue; control for the full effect not named in the record; AID 485353, 2010; 0.19% of 330,000 active; note: 0% is about no effect; nearly all actives have a fitted effect of over 55% in size; growth read by luminescence after 48 h
StopGo reporter: High Throughput Screening for Foot and Mouth Disease Virus Antivirals | human cells with a luciferase reporter of 2A StopGo recoding; control for the full effect not named in the record | Potency, µM (highest dose often 57.9 µM), for inactives: at the top dose signal change, negative = less light | 1.2% of 410,000 active | AID 1159524, 2015; active = well fitted falling curve with a large enough effect; inconclusive = small, poorly fitted or top-dose-only effect; inactive = no such curve, though single readings can be large or run the other way; tested in HEK293T cells; note: % is set by controls: 0 for no effect and ±100 for the full control effect; nearly all actives have a fitted effect of over 45% in size; luciferase light after 4 h
NS1 function inh: qHTS Assay for Inhibitors of Influenza NS1 Protein Function; S. cerevisiae slowed by influenza A NS1, growth recovery by OD600; Potency, µM (series often up to 46.1 µM), for the others: top-dose activity, positive = more growth; 0.4% of 270,000 active; AID 2326, 2010; note: actives are rising curves; nearly all actives have a fitted effect of over 50% in size
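S. cerevisiae expressing influenza A NS1, grown in glucose, washed, then diluted 1:100 into pH 6.0 -URA galactose medium with 23 nl compound. Growth recovery read as OD600; NS1-free strain serves as control.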
Cruzain inh Det: qHTS Assay for Promiscuous and Specific Inhibitors of Cruzain (with detergent); 0.43% of 200,000 active; AID 1478, 2009; Cruzipain (Trypanosoma cruzi), P25779; purified cruzain, Z-FR-AMC fluorescence, 0.01% Triton; Potency, µM, without a hit: max response, negative = inhibition, most hits filed as inhibitors; active = well fitted curve in the direction sought with a large enough effect; inconclusive = small, poorly fitted or top-dose-only effect, or another doubt; inactive = no such curve, though single readings can be large; an effect the other way counts as inactive or inconclusive;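 note: plate controls were neutral wells for no effect and buffer without enzyme for full effect; nearly all actives have a fitted effect of over 40% in size; top concentration of the series not given in the record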
Target sequence (P25779 123-467 limits assumed): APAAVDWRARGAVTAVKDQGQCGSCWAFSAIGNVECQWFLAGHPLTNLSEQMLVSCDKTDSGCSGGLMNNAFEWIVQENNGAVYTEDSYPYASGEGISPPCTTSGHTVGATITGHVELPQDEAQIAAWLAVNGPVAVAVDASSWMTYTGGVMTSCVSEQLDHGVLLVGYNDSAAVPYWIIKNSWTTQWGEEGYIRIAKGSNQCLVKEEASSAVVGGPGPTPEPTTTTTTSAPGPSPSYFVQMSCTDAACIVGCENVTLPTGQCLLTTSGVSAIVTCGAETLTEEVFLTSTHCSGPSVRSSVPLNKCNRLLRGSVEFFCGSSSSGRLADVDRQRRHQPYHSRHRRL
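Steps: dispense cruzain (1.5 nM final) in acetate buffer pH 5.5 with DTT and 0.01% Triton X-100; pin-transfer compounds; incubate 15 min RT; add Z-FR-AMC (2 uM final); read fluorescence every 30 s, using the 60 s intensity change.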
RE007 growth inh: qHTS Assay for Inhibitors of the HIV-1 protein Vpr | S. pombe RE007 Vpr strain, BacTiter-Glo ATP luminescence, 24 h; control for the full effect not named in the record | AID 651644, 2012 | 0.21% of 360,000 active | Potency, µM (series often up to 92.2 µM), for inactives: at the highest dose activity change, negative = less growth; active = well fitted falling curve with a large enough effect; inconclusive = small, poorly fitted or top-dose-only effect; inactive = no such curve, though single readings can be large or run the other way;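 note: % is set by controls: 0 for no effect and ±100 for the full control effect; nearly all actives have a fitted effect of over 50% in size; the assay follows cell death caused by Vpr and the record does not say whether a fall means rescue or toxicity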
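Fission yeast RE007 carrying one integrated HIV-1 vpr copy, seeded at OD 0.01 in PMG+AL medium with 23 nL pinned compound. Grown 24 h at 30 degrees; viability read by BacTiter-Glo luminescence after 5 min.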
MARV entry inh: qHTS for inhibitors of binding or entry into cells for Marburg Virus | Marburg virus pseudotyped entry inhibition, cell reporter; control for the full effect not named in the record; about a third of the inactives were read at about 46 µM | Potency, µM (highest dose often 37.8 µM), inactives show top-dose activity change, negative = inhibition, actives largely listed as inhibitors | 1.8% of 300,000 active; active = well fitted inhibition curve with a large enough effect; inconclusive = small, poorly fitted or top-dose-only effect, or effect the other way; inactive = flat fitted curve, though single readings scatter; tested in HEK293 cells; about a fifth of its hits are not listed in these tables; note: % is set by controls: 0 for no effect and ±100 for the full control effect; luciferase read-out
Cruzain inh noDet: qHTS Assay for Promiscuous and Specific Inhibitors of Cruzain (without detergent) | 2.3% of 200,000 active | Cruzipain (Trypanosoma cruzi), P25779 | purified cruzain, Z-FR-AMC fluorescence, no detergent | Potency, µM, for inactives: max response, negative = inhibition, most hits filed as inhibitors | AID 1476, 2009; active = well fitted curve in the direction sought with a large enough effect; inconclusive = small, poorly fitted or top-dose-only effect, or another doubt; inactive = no such curve, though single readings can be large; an effect the other way counts as inactive or inconclusive;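 note: plate controls were enzyme without inhibitor for no effect and buffer without enzyme for full effect; nearly all actives have a fitted effect of over 40% in size; top concentration of the series not given in the record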
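Purified cruzain at 1.5 nM, pre-incubated 15 min with compound at room temperature in 100 mM sodium acetate pH 5.5, 5 mM DTT, 0.00005% Triton X-100. Reaction started with 2 uM Z-FR-AMC; AMC fluorescence increase over 60 s gives rate.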
Active calls of the source: *; ? = inconclusive; . = no result given; [ ] = another dose, or the depositor's remark. Unless noted, calls come from the whole dose curve; as a rule, active means well fitted rising curve with a large enough effect; inconclusive means small, poorly fitted or top-dose-only effect; inactive means no such curve, though single readings can be large or run the other way. Potency is the fitted concentration of half-maximal effect. Rows were taken by chance. About 4.7% of those tested had a hit in this group.

SMILES	Lassa entry inh	SARS PLP yeast	StopGo reporter	NS1 function inh	Cruzain inh Det	RE007 growth inh	MARV entry inh	Cruzain inh noDet
O=C(CSc1nc2ccc(Cl)cc2[nH]1)c1cccs1	.	0%	112%[activator]	7%	.	2%	.	.
CCOC(=O)C1CCCN(C(=O)c2ccc([N+](=O)[O-])cc2)C1 (centres undefined)	-1%	0%	0%	?	0.2%	11%	3%	-8%
CCCC(=O)Nc1ccccc1NC(=O)CN(C)S(=O)(=O)c1ccc(C)cc1	-1%	2%	10%	1%	3.7%	8%	?	-1%
Cc1ccn2cc(CCNS(=O)(=O)c3ccc([N+](=O)[O-])cc3)nc2c1	1%[46.1 µM]	-1%	-4%	-7%	.	?	28%[46.1 µM]	.
CN(C)/C=C/C(=O)Oc1ccc(Cl)cc1Cl	6%	1%	1%	5%	.	3%	?	.
Cc1ccc(S(=O)(=O)NC(=O)Nc2ccc(F)cc2)cc1	0%	-3%	6%	4%	-2.2%	12%	13%	14%
CCCN(CCC)C(=O)CC(c1ccc(F)cc1)c1ccco1 (centres undefined)	9%	4%	-23%	21%	?	4%	?	?
CC(=O)OCCn1c(C)[n+](CCOC(C)=O)c2cc(Cl)c(Cl)cc21	13%[46.1 µM]	0%	5%	.	.	-18%	-2%[46.1 µM]	.
O=c1c2ccccc2nc(-c2ccccc2Cl)n1-c1cccc(O)c1	.	2%	-5%	-4%	.	0%	.	.
CCC(C)(C)c1ccc(OCC(=O)Nc2ccncc2)cc1	-6%	-15%	-20%	-73%	.	-12%	?	.
CCN(CC)CCCn1c(C)cc2c(c1=O)C(c1cccc(Cl)c1)C(C#N)=C(N)O2 (centres undefined)	?	1%	2%	7%	7.0%	8%	11µM*	12%
O=C(c1ccc(Cl)cc1)c1oc2ccccc2c1CS(=O)c1ccccc1 (centres undefined)	?	1%	?	-1%	-13%	-10%	-29%	4%
CCc1ccc(NC(=O)CNC(=O)Cn2c(C)cc3ccccc3c2=O)cc1	13%[46.1 µM]	.	10%	.	-1.4%	.	-13%[46.1 µM]	16%
COc1ccc(NS(=O)(=O)c2ccc3c(c2)CCCN3C(=O)C2CCC2)cc1OC	?	.	?	.	-3.1%	.	.	5%
CC1=NOC(=O)/C1=C\c1ccc(-c2ccc(Cl)cc2Cl)o1	?	-17%	?	-19%	-19%	20%	1%	?
CC(NC(=O)C12CC3CC(CC(O)(C3)C1)C2)c1ccc(Cl)cc1Cl (centres undefined)	4%[46.1 µM]	-3%	-2%	30%	.	-3%	-19%[46.1 µM]	.
COc1ccc(C)cc1NC(=O)Cn1c(=O)oc2cc(S(=O)(=O)N3CCCCC3)ccc21	.	.	-11%	.	-3.1%	.	7%[46.1 µM]	?
CNc1ncc(Cc2ccccc2)s1	-3%	20%	-6%	19%	-0.1%	0%	0%	10%
O=C(CCC1CCN(C(=O)c2ccccc2Cl)CC1)NCc1ccc(F)cc1	-10%	0%	-10%	-7%	.	-2%	-2%	.
OC1CCN(Cc2nc(Cc3ccccc3Cl)no2)CC1	-2%[46.1 µM]	0%	-7%	6%	.	5%	19%[46.1 µM]	.
CC(C)C(c1nnnn1C1CCCC1)N1c2ccccc2CC1C (centres undefined)	6%	-32%	-13%	-13%	2.5%	17%	?	-3%
CCOC(=O)c1cc2c(=O)n3ccccc3nc2n(CC2CCCO2)c1=NC(C)=O (centres undefined)	-9%	-10%	-12%	-2%	32µM*	-1%	?	10µM*
CCc1ccc(C(C)NC(=S)NC2CCCCC2)cc1 (centres undefined)	.	?	-11%	-75%	.	-1%	.	.
CC(OC(=O)c1ccc(S(=O)(=O)NCc2ccco2)cc1)C(=O)Nc1ccccc1 (centres undefined)	?	2%	-16%	.	.	7%	0%	.
CN(Cc1cnccn1)Cc1cn(Cc2ccccc2)nc1-c1ccc2c(c1)OCO2	.	1%	9%	4%	.	-5%	2%[46.1 µM]	.

The results go on.
SMILES	Lassa entry inh	SARS PLP yeast	StopGo reporter	NS1 function inh	Cruzain inh Det	RE007 growth inh	MARV entry inh	Cruzain inh noDet
COCCN(Cc1cccs1)S(=O)(=O)c1ccc(-c2ccc(=O)[nH]n2)s1	.	2%	3%	6%	.	10%	.	.
O=C(CN1C(=O)c2ccccc2S1(=O)=O)NCc1cccnc1	20%	1%	0%	-3%	4.4%	-10%	2%	12%
O=C(Nc1ccccc1N1CCN(C(=O)c2ccccc2)CC1)c1cc(Br)ccc1Cl	?	-6%	-16%	?	0.1%	3%	?	?
CC(C)[C@H](NC(=O)N1CC(=O)Nc2ccccc21)C(=O)N[C@H](Cc1ccccc1)C(=O)O	.	-1%	-23%	2%	.	-6%	.	.
CC(Cc1cccnc1)NC(=O)c1ccccc1OC1CCN(S(C)(=O)=O)CC1 (centres undefined)	3%[46.1 µM]	1%	18%	8%	.	3%	-2%[46.1 µM]	.
COc1nc(N(C)C)nc(N(OC)S(=O)(=O)c2ccccc2Cl)n1	?	0%	-18%	2%	8.4%	7%	-25%	10%
CN(C)S(=O)(=O)N(CC(=O)NCCSCc1ccccc1Cl)c1ccccc1	?	.	-6%	.	-7.0%	.	.	?
Cc1cc2oc(C(=O)Nc3sc4c(c3C(=O)NCc3ccco3)CCC4)cc(=O)c2cc1C	15%[46.1 µM]	.	2%	.	-1.8%	.	7%[46.1 µM]	-10%
O=C(Nc1ccccc1)OCc1cn(-c2ccc(Cl)cc2)nn1	8%	-5%	0%	-7%	0.3%	-12%	-5%	5%
O=C(c1ccccc1)N1CCN(c2ccc([N+](=O)[O-])c(NCc3ccco3)c2)CC1	-17%	-1%	?	14%	-3.3%	25%	?	-12%
Cc1nc(C(=O)N2CCCC(C(=O)c3cccc(OC(C)C)c3)C2)cs1 (centres undefined)	-15%	19%	-26%	-26%	.	0%	-23%	.
CCN(c1ccccc1)S(=O)(=O)c1ccc2[nH]cc(C(=O)NC3CCCCC3)c(=O)c2c1	?	.	-24%	.	-7.4%	.	.	3%
CCOC(=O)c1c(NC(=S)NC(=O)c2ccc(Cn3cc(Cl)cn3)o2)sc2c1CCC(C)C2 (centres undefined)	.	-4%	17%	5%	-2.0%	.	0%	?
O=C(O)C1CC=CCC1C(=O)Nc1ccccc1 (centres undefined)	4%	3%	10%	-1%	12%	3%	?	11%
O=C(NC1CCCN(Cc2ccc(Cl)cc2)C1)c1cnc2ccccn2c1=O (centres undefined)	?	0%	-29%	-3%	.	?	?	.
COc1ccc2c(C)cc3nncn3c2c1	12%[46.1 µM]	0%	-3%	.	.	0%	-14%[46.1 µM]	.
COC(=O)c1ccccc1NC(=O)Nc1cc(C(C)(C)C)on1	?	1%	56%[activator]	2%	.	-2%	-27%	.
O=C(Nc1ccc(C(F)(F)F)cc1)N1CCN(c2ccnc3cc(Cl)ccc23)CC1	?	-16%	?	-65%	.	-20%	?	.
O=C(Nc1ccc2c(c1)C(N1CCOCC1)c1ccccc1-2)C(F)(F)F (centres undefined)	?	.	-25%	.	.	14%	2%	.
O=C(CN1C(=O)CSc2ccc(S(=O)(=O)N3CCOCC3)cc21)NCCCN1CCOCC1	17%[46.1 µM]	1%	-12%	.	.	17%	22%[46.1 µM]	.
COc1ccc2oc(=O)c(-c3csc(-c4ccc(Br)cc4)n3)cc2c1	14%[46.1 µM]	.	-6%	.	2.6%	.	.	2%
CCc1ccc(-c2nc(CSCC(=O)NCc3ccccc3OC)c(C)o2)cc1	-5%[46.1 µM]	.	-17%	.	2.2%	.	14%[46.1 µM]	-11%
O=C(Nc1cccnc1)c1sc(Nc2ccccc2)nc1-c1ccccc1	-16%	8%	-3%	25%	-11%	-18%	-28%	-4%
Cc1ccc(C)c(N2CCN(S(=O)(=O)c3cccc4cccnc34)CC2)c1	-4%	-8%	-17%	.	.	1%	-8%[46.1 µM]	.
CN(C)c1cccc(C(=O)NNC(=O)NC2CCCCC2)c1	-11%	7%	12%	-6%	-0.1%	-4%	-4%	-6%

Other results.
SMILES	Lassa entry inh	SARS PLP yeast	StopGo reporter	NS1 function inh	Cruzain inh Det	RE007 growth inh	MARV entry inh	Cruzain inh noDet
CC1CCN(C(=O)CSc2nnc3c(n2)[nH]c2ccc(F)cc23)CC1	-14%	2%	-25%	2%	.	8%	-12%[46.1 µM]	.
COC(=O)/C=c1/s/c(=C(/C#N)C(=O)NCc2ccccc2)n(-c2ccccc2)c1=O	5%	3%	-19%	3%	1.2%	31%	-22%	?
c1ccc(Nc2nc(-c3cccs3)cs2)nc1	?	-45%	-6%	-61%	-13%	?	?	?
CCC(C)NCC(=O)Nc1cc(S(=O)(=O)N(CC)c2ccccc2)ccc1Cl (centres undefined)	?	3%	0%	-7%	-0.5%	-4%	21µM*	2%
O=C(CSc1nc2ccccc2o1)N1CCOCC1	.	3%	30%	2%	.	-7%	.	.
O=C(c1ccc2ccccc2c1)N1CCN(S(=O)(=O)/C=C/c2ccccc2)CC1	?	1%	-10%	.	.	21%	?	.
CC(=O)c1ccc(S(=O)(=O)Nc2ccc(C(=O)NC3CC3)cc2)cc1	-9%	4%	5%	.	.	-6%	-8%	.
CC(C)c1nc(NCCO)c2nnn(Cc3ccccc3)c2n1	-8%	0%	-16%	1%	.	-1%	-10%	.
CC1(C)Cc2ccccc2-c2nnc(SCc3ccccc3)n21	12%	21%	.	-5%	-3.8%	1%	0%	-3%
Cc1ccc(NC(=O)Cn2nnc(C(=O)NCc3ccco3)c2N)cc1	-14%	2%	-20%	5%	6.5%	1%	-16%[46.1 µM]	-2%
COc1ccc(N=C2SC(C(=O)Nc3ccc(OC)cc3)CC(=O)N2CCN2CCOCC2)cc1 (centres undefined)	?	5%	-18%	8%	-3.5%	-10%	?	-10%
